# AID504770 = growth inhibitors of E. coli YBA685 in a screen for V. cholerae RctB (chromosome II replication) inhibitors. E. coli YBA685 rctB-dependent plasmid, OD600 growth, 3 h; stronger effect = lower value. z-score (concentration not given with the values). 130,000 tested, 0.27% active. AID 504770;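 active = z-score under -2 on both plates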;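 also: wells of about 30 µL received 100 nL stock; score is relative to mean and SD of the test wells; the first replicate is given; strong numbers were not always called active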
# Ba CapD inh = blocks the Bacillus anthracis CapD enzyme. purified CapD enzyme, fluorescence intensity read-out; stronger effect = lower value; some hits fall short of the stated cut. z-score (no concentration beside the values). 140,000 tested, 0.23% active;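 active = z-score under -4 in either of two replicates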;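 also: stock transfer was 100 nL into about 40 µL; score is relative to mean and spread of the plate; one replicate is shown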
# An asterisk follows results filed as active; i = inactive; · = no result given; & = joins results of further samples.
SMILES,AID504770,Ba CapD inh
CC1=C(C#N)C(c2ccc(N(C)C)cc2)C(C(=O)Nc2ccccc2)=C(C)N1 (stereo not given),-1.05,12.3
CC(C)C(=O)Nc1ccc(Br)cc1,-0.35,·
CCOC(=O)N1CCN(C(=O)c2ccc(CNS(=O)(=O)c3ccc(NC(C)=O)cc3)cc2)CC1,0.45,-0.27
FC(F)(F)c1cc(C(F)(F)F)c2ccc(Sc3ncn[nH]3)nc2n1,·,0.795
COc1cc(CNCc2cccnc2)ccc1OCC(N)=O,2.2,-0.355
CC1CCN(Cc2c(O)ccc3cc(-c4nc5ccccc5s4)c(=O)oc23)CC1,·,-0.02
Cc1nc(NC(=O)c2ccc(F)cc2)nc2cc3c(cc12)OCO3,-0.65,12.7
c1cncc(N=c2scc(-c3cccs3)n2CCCn2ccnc2)c1,0.4,·
CCN(Cc1ccc(OC)c(F)c1)c1nc(C(F)(F)F)nc2ccccc12,-0.3,·
CC12CC(c3ccccc3O1)C(C(=O)O)C(=O)N2CCc1ccc(S(N)(=O)=O)cc1 (stereo not given),-0.65,·
NC(=O)C1CCN(C(=O)Nc2cc3ccccc3s2)CC1,-0.95,-1.1
CCOC(=O)Cc1nn(Cc2nc(-c3ccccc3)cs2)c(=O)c2ccccc12,-1,0.755
O=C(NCCc1ccccc1F)c1ccc2ccccc2c1,-0.25,-0.27
O=C(CN(c1ccc2c(c1)OCCO2)S(=O)(=O)c1ccccc1)NC1CC1,-0.9,·
N#Cc1ccc(-c2cccs2)nc1SCC(=O)c1ccc(Cl)cc1,·,0.405
Cc1cc2nc(NC3CCS(=O)(=O)C3)c3ccccc3n2n1 (stereo not given),-0.6,·
N=c1oc2ccc3ccccc3c2cc1-c1nnc2n1CCCCC2,-0.4,·
Cn1c(O)c(N=Nc2ccc(C(F)(F)F)cc2)c(=O)n(C)c1=O,-1,·
CC(NC(=O)C1CCN(C(=O)c2cc3sccc3n2Cc2ccc(F)cc2)CC1)c1ccccc1 (stereo not given),0.15,-0.005
COc1cc(OC)cc(N2CCN(C(=O)CC(C)CC(=O)O)CC2)c1 (stereo not given),·,0.505
Cc1ccc(CC23CN4CCN(CC(C4)C2O)C3)c(C)c1 (stereo not given),-0.2,-0.43
O=C(c1ccco1)c1coc2ccc(O)cc12,0.7,-1.19
CC(=O)Oc1ccccc1C(=O)NC1CCN2CCCc3cccc1c32 (stereo not given),·,0.495
Cc1cccc(-c2nc3cc(NC(=O)c4cccc(F)c4)ccc3o2)c1,0.15,5.04
Cn1nccc1NS(=O)(=O)c1cccc(Cl)c1,·,-0.73
COc1cc(OCc2ccccc2)ccc1CN1CCN(C)CC1,-0.8,-0.765
O=C1CC(c2ccccc2)c2cc3c(cc2N1)OCO3 (stereo not given),-0.85,-0.32
O=S(=O)(c1ccc(Cl)cc1)N1CCC(O)(CN2CCOCC2)CC1,·,-0.095
COC(=O)c1cc2oc3ccccc3c2n1CC(=O)Nc1ccc(C(C)C)cc1,0.3,8.24
CC(=O)NCC(=O)NC1CCC(C)CC1 (stereo not given),0.95,·
COc1cccc(-c2cn3c4c(=O)n(C)c(=O)n(C)c4nc3n2-c2ccc(C)c(C)c2)c1,·,0.29
CSc1nc(Oc2ccc(C(C)(C)C)cc2)c2cnn(-c3ccccc3)c2n1,·,-0.36
CCCCn1c(N)c(C(=O)OC)c2nc3ccccc3nc21,1.8,·
OC1CCN(Cc2cccc(C(F)(F)F)c2)CC1,-0.15,-0.105
O=C(N/N=C1\C/C(=N\NC(=O)c2ccncc2)c2ccccc21)c1ccncc1,-2.3,·
COc1ccc(N2CCN(C(=O)c3sc4ncn(CC(=O)N5CCCCC5C)c(=O)c4c3C)CC2)cc1 (stereo not given),·,-0.625
Cc1ccnc(NC(=O)NCCCSc2nnnn2-c2ccccc2)n1,-0.2,·
Fc1ccc(NC(=S)NC23CN4CN(CN(C4)C2)C3)cc1,-1,0
COc1ccc(-c2csc(NC(=O)/C=C/c3cccs3)n2)c(OC)c1,0.4,-1.64
CC(=O)c1ccc2c(c1)OCCO2,·,2.04
CC(C)C(=O)Nc1c(C(=O)c2ccccc2)oc2ccccc12,-0.4,4.2
N#Cc1cc2c(cc1C#N)Oc1ccccc1O2,0.15,·
O=C(C1CCC(Cn2c(=O)[nH]c3ccccc3c2=O)CC1)N1CCN(c2ccccc2)CC1 (stereo not given),-1.05,0.09
Cc1cc(N=Cc2c[nH]c3ccccc23)ccc1Br,-0.6,-0.28
CCN(CC)S(=O)(=O)c1ccc(O)c(C(=O)O)c1,-0.25,·
COc1ccc(-c2noc(C3CCCN(C(=O)c4ccccc4)C3)n2)cc1 (stereo not given),-0.6,·
O=c1cc(-c2ccccc2)c2ccc3c(c2o1)CN(Cc1ccc2c(c1)OCO2)CO3,0.05,22.2
CN(C)c1ccncc1C(=O)Nc1cc(Cl)cc(Cl)c1,0.8,-0.945
Cc1cccc(-c2nc(NCCCN3CCOCC3)c3ccccc3n2)c1,-0.15,-0.22
Cc1cc(=O)n(-c2nc(-c3ccccc3)cs2)[nH]1,-0.8,0.015
COc1cc(CN2CCN(CCOC(=O)NNC(=O)c3csc(C)n3)CC2)cc2c1OCO2,·,-0.825
O=C(ON1C(=O)CCC1=O)c1ccccc1Cl,0.1,-0.13
Cc1ccc(SCC(=O)Nc2ccc(I)cn2)cc1,-0.3,0.215
CCCCN(C)C(=O)c1c[nH]c2ccc(S(=O)(=O)Nc3cccc(OC)c3)cc2c1=O,1.9,-0.775
CN(C)c1ccc(C(=O)OCC(=O)C(C)(C)C)cc1,0.25,·
Cc1ccc(C(=O)N/C(=C\c2cn(-c3ccccc3)nc2-c2ccc(F)cc2)C(=O)NCc2ccccc2)cc1,·,-0.28
Cc1nn(-c2ccccc2)nc1CNC(=O)C1CC1,-0.9,0.23
COCCNC(=O)c1ccccc1NS(=O)(=O)c1ccc(F)cc1,-1.2,4.75
CC(=O)N[C@H]1[C@H](OC2CCC3(C)C(C=CC4C3CCC3(C)C(C(C)CCCC(C)C)CCC43)C2)O[C@H](CO)[C@@H](O)[C@@H]1O (stereo not given in full),·,-0.065
Cc1ccc(NC(=C(C#N)C#N)c2ccccc2)cc1,2,·
# More records follow.
SMILES,AID504770,Ba CapD inh
COc1ccc(N2CCN(c3nc(OC)nc(N4CCOCC4)n3)CC2)cc1,·,0.23
COc1cc(OC)c(OC)cc1/C=C1N=C(/C=C/c2cccc([N+](=O)[O-])c2)OC\1=O,·,-0.295
O=C(Nc1ccncc1)C1(c2ccccc2)CCCC1,-0.8,-0.165
CCOC(=O)N1CCN(C(=O)C2CC(=O)N(c3ccc(OC)cc3)C2c2ccc(OC)cc2)CC1 (stereo not given),0.7,0.435
O=C(NCCO)C1(c2ccc(Cl)cc2)CCCC1,-0.2,·
COc1ccc(OCCCC(=O)N2CCCC(C(N)=O)C2)cc1 (stereo not given),-0.7,·
C/C(N)=C/C(=O)N1CCCCC1,-1.05,0.465
COc1ccc(C2C(C#N)=C(N)Oc3n[nH]c(C)c32)cc1COc1ccccc1Cl (stereo not given),·,0.295
CC(C)(C)CC(=O)NC1CCSC1=O (stereo not given),0.05,0.715
COc1cc(-c2c(C#N)c(N)n3c(nc4ccccc43)c2C#N)ccc1OCCCC#N,·,-0.065
CN(CC(=O)O)Cc1cccnc1,-0.3,·
Cc1nc(N2CCCN(C)CC2)c2c3c(sc2n1)CCC3,-0.05,i
CC1=C(C(=O)Nc2ccc(Cl)cc2)C(c2ccncc2)C(C#N)=C(SCC(=O)Nc2ccc(Cl)cc2)N1 (stereo not given),·,2.79
CC(=O)NC1C(Oc2ccc(C=O)cc2)OC(COC(C)=O)C(OC(C)=O)C1OC(C)=O (stereo not given),·,-0.08
N#C/C(=C\c1c(Oc2ccccc2)nc2ccccn2c1=O)C(=O)NCc1ccco1,0.15,1.14
O=C(c1noc2c1CCCC2)N(C1CCCCC1)C1CCCCC1,1.3,-2.02
COc1ccc(/C(O)=C2\C(=N)N(c3ccc([N+](=O)[O-])cc3C)C3=C(C(=O)CCC3)C2c2cc(OC)c(OC)c(OC)c2)cc1 (stereo not given),·,1.02
COc1cc2[nH]c(=O)n(CCCCCC(=O)N3CCN(c4cccc(C)c4C)CC3)c(=O)c2cc1OC,-0.1,1.88
COc1ccc(C2Nc3ccccc3C(=O)N2Cc2ccccc2)cc1CN1CCOCC1 (stereo not given),·,42.9
O=C1Nc2ccccc2C1=NC1CCN(Cc2ccccc2)CC1,1.25,-0.14
NS(=O)(=O)c1ccc(-c2ccc(/C=N/NC(=O)COc3ccc(F)cc3)o2)cc1,-0.25,·
N#Cc1c(N2CCCC2)nc(N)c2c(N)nc(N3CCCC3)cc12,-0.45,·
Cc1sc2nc(C(C)C)oc(=O)c2c1C,·,-0.355
Cc1ccc(Nc2nc(-c3ccc(S(=O)(=O)N4CCCC4)cc3)cs2)cc1,0.1,11.4
CCOC(=O)N1CCCN=C1NNc1cc(F)ccc1F,-0.4,-0.24
Cc1cc2cc(NS(=O)(=O)c3ccc(Cl)cc3)ccc2[nH]1,·,-0.265
Cc1nn(-c2ccccc2)c(C)c1NC(=O)CN1CCCCC1C (stereo not given),-0.55,·
Cc1ccc(S(=O)(=O)NC2=NCN(CCCN3CCOCC3)CN2)cc1,-1.1,·
COC(=O)c1c(N)sc2c1CCN(c1ncc(C(F)(F)F)cc1Cl)C2,·,2.14
O=C(Nc1c(C(=O)N(Cc2ccco2)CC2CCCO2)oc2ccccc12)C1CCCC1 (stereo not given),0.05,3.92

# In a second layout: entries from further up
SMILES	AID504770	Ba CapD inh
O=C1Nc2ccccc2C1=NC1CCN(Cc2ccccc2)CC1	1.25	-0.14
OC1CCN(Cc2cccc(C(F)(F)F)c2)CC1	-0.15	-0.105
CC(C)C(=O)Nc1ccc(Br)cc1	-0.35	·
CCN(Cc1ccc(OC)c(F)c1)c1nc(C(F)(F)F)nc2ccccc12	-0.3	·
COc1ccc(/C(O)=C2\C(=N)N(c3ccc([N+](=O)[O-])cc3C)C3=C(C(=O)CCC3)C2c2cc(OC)c(OC)c(OC)c2)cc1 (stereo not given)	·	1.02

# The list goes on.
SMILES,AID504770,Ba CapD inh
O=S(=O)(c1c(F)cccc1F)N1CCC2(CC1)OCCO2,·,0.53
Cc1ccc(-c2n[nH]c(=O)c3ccccc23)cc1S(=O)(=O)N1CCN(CCO)CC1,1.6,·
CN(C)CCOC(=O)c1ccco1,-0.2,·
CC1CCCC(C)N1Cc1c(O)ccc2c3c(c(=O)oc12)CCC3 (stereo not given),·,43.5
O=C(O)CCC(=O)N1c2ccccc2NC2=C(C(=O)CC(c3ccccc3)C2)C1c1cccnc1 (stereo not given),·,-0.385
N#CC1CCCc2c1[nH]c1ccc(Br)cc21 (stereo not given),-0.15,-0.25
CCn1c(=O)c2c3c(sc2n2c(SCc4ccc(OC)cc4)nnc12)CCCC3,-1.05,1.5
Cc1ccccc1-n1c(SCC(=O)c2c[nH]c3ccccc23)nnc1-c1cccnc1,·,0.6
C=CCc1c(C)nc(-c2ccccc2)[nH]c1=O,2.15,-0.215
O=c1ccc(C(F)(F)F)cn1Cc1cc(=O)n2ccsc2n1,-0.35,·
CC(C)(C)NC(=O)CCc1ncc(C(F)(F)F)cc1Cl,1.05,-0.415
CC1(C)CC2(CCCN(CCCN3CCCC4(CCOC(C)(C)C4)C3)C2)CCO1 (stereo not given),2.35,-0.83
CN(C)c1ccc(/C=N/n2cnnc2)cc1,-0.85,9.16
CC(=O)N[C@@H](CC(=O)O)C(=O)N[C@@H](CCC(=O)O)C(=O)O,·,0.78&-0.28
COC(=O)CCCCCNC(=O)C1OC2OC(C)(C)OC2C2OC(C)(C)OC12 (stereo not given),·,-0.22

# The list goes on (six carried over from the part before).
SMILES,AID504770,Ba CapD inh
O=c1ccc(C(F)(F)F)cn1Cc1cc(=O)n2ccsc2n1,-0.35,·
CC(C)(C)NC(=O)CCc1ncc(C(F)(F)F)cc1Cl,1.05,-0.415
CC1(C)CC2(CCCN(CCCN3CCCC4(CCOC(C)(C)C4)C3)C2)CCO1 (stereo not given),2.35,-0.83
CN(C)c1ccc(/C=N/n2cnnc2)cc1,-0.85,9.16
CC(=O)N[C@@H](CC(=O)O)C(=O)N[C@@H](CCC(=O)O)C(=O)O,·,0.78&-0.28
COC(=O)CCCCCNC(=O)C1OC2OC(C)(C)OC2C2OC(C)(C)OC12 (stereo not given),·,-0.22
Cc1cc(C)n(CC(O)Cn2c(-c3ccccc3)c(-c3ccccc3)c3ccc4ccccc4c32)n1 (stereo not given),·,2.83
CCOC(=O)C1(C#N)C(N)=C(C#N)C(c2ccccc2)=CC1c1ccccc1 (stereo not given),0.55,1.1
O=C(c1ccccc1Br)N1CCc2c([nH]c3ccccc23)C1,·,-0.08
Cn1c(C/C(N)=N/O)nc2ccccc21,-0.15,·
COCCNC(=O)c1cc(-c2ccc(OC)cc2)cs1,·,0.07
CCCC1=NN(c2ccc(C(=O)OCC)cc2)C(=O)C1,0.9,0.835
CCC(=O)N1N=C(c2c(-c3ccccc3)c3cc(Br)ccc3[nH]c2=O)CC1c1cccc([N+](=O)[O-])c1 (stereo not given),·,-0.17
CC(C)c1cccc(C(C)C)c1NC(=O)/C=C/c1ccco1,-0.15,0.115
O=C(NCCN1CCOCC1)c1cccc2cc[nH]c12,·,2.43
c1ccc(Nc2nc(N3CCCCC3)nc(N3CCCCC3)n2)cc1,1.65,·
COc1cc(C=Nc2ccc(N3N=C(C)CC3=O)cc2)ccc1O,·,-1.08
COc1cc(C=Nc2ccc(C(=O)c3ccccc3)cc2)cc(OC)c1OC,-1,-1.86
